High-throughput results: PubChem BioAssay, National Center for Advancing Translational Sciences (NCATS)
2A firefly: lowers the firefly signal of an FMDV 2A StopGo reporter; Potency, µM (series often up to 57.5 µM), for inactives: at the highest dose signal change, negative = less light; HEK cells with a luciferase reporter of 2A StopGo recoding; 0.23% of 120,000 active; active = well fitted falling curve with a large enough effect; inconclusive = small, poorly fitted or top-dose-only effect; inactive = no such curve, though single readings can be large or run the other way; note: nearly all actives have a fitted effect of over 60% in size; overnight with compound
2A Renilla: FMDV 2A StopGo reporter, Renilla signal. HEK cells with a luciferase reporter of 2A StopGo recoding. Potency, µM (doses to about 57.5 µM), for inactives: at the highest dose signal change, negative = less light. 0.32% of 120,000 active; active means well fitted falling curve with a large enough effect; inconclusive means small, poorly fitted or top-dose-only effect; inactive means no such curve, though single readings can be large or run the other way; note: nearly all actives have a fitted effect of over 55% in size; overnight with compound
Starred values were filed as active, the others as inactive; ? = inconclusive; & = joins results of further samples; [ ] = another dose, or the depositor's remark. % is set by controls: 0 for no effect and ±100 for the full control effect; potency is the fitted concentration of half-maximal effect. An excerpt; count on the stated rates, not on these rows.

Compound | 2A firefly | 2A Renilla
O=C(O)c1c(F)c(F)c(F)c(F)c1Cc1ccccc1 | 6% | 9%
O=C(NCC(c1ccco1)S(=O)(=O)c1cccs1)c1ccc(F)cc1 (stereo not given) | 26% | 47%[activator]
CC(=O)N1CCCc2cc(S(=O)(=O)N3CCCC(C(=O)NCc4ccc(Cl)cc4)C3)ccc21 (stereo not given) | ? | 275%[activator]
CCOc1ccc(NC(=O)C2CC(=O)NC(=Nc3ccc(Cl)c(Cl)c3)S2)cc1 (stereo not given) | -12% | -12%
CC(CC1OCC(CN2CCCCC2)O1)CC(C)(C)C (stereo not given) | -4% | 1%
O=C(Nc1ccccc1C(=O)OCC(=O)N1CCc2ccccc21)c1ccc([N+](=O)[O-])cc1Cl | 2% | -5%
CC(C)CCn1nc(C(=O)Nc2ccccc2C(C)(C)C)c2ccccc2c1=O | 11% | -2%
Cc1ccc(NC(=O)CC2C=CCC2)cc1C (stereo not given) | 179%[activator] | 36%[activator]
CC(NC(=O)COC(=O)c1c[nH]c2ccccc12)c1ccccc1 (stereo not given) | 24% | 14%
O=C(CCc1c[nH]c2ccccc12)Nc1cccc(O)c1 | 175%[activator] | 6%
Cc1sc(NC(=O)c2ccc(C(C)C)cc2)c(C#N)c1C | 14% | 7%
O=C(NCC#Cc1ccccc1)C1CCCN(C(=O)C2CC2)C1 (stereo not given) | 10% | 12%
CCOc1cc(/C=C/C(=O)c2ccc(C)cc2)cc(Cl)c1O | 0% | ?
CCC(=O)N(Cc1cc(=O)[nH]c2ccccc12)c1ccc(C)cc1C | 12% | 19%
Cc1ccccc1-c1nc(NC(=O)CSc2ncnc3sc4c(c23)CCCC4)ns1 | 0% | 1%
Cc1ccc2c(c1)C(O)(c1c[nH]c3ccccc13)C(=O)N2 (stereo not given) | -4% | -3%
COc1ccccc1NC(=O)C1=C(C)Nc2ncnn2C1c1ccc[nH]1 (stereo not given) | -11% | -6%
COc1cc(OC)cc(-n2c(=O)c3sccc3n(Cc3cc(=O)n4c(C)cccc4n3)c2=O)c1 | -6% | -13%
CC(C)CCC(=O)Nc1ccc(C(N)=O)c(Cl)c1 | 29% | 10%
CN(C)S(=O)(=O)c1ccc2oc(SC(C(=O)N3CCCC3)c3ccccc3)nc2c1 (stereo not given) | -34% | 33%[activator]
CCOC(=O)c1cnc(SCc2nc(-c3cccc(C)c3)oc2C)nc1N | -3% | -17%
COc1ccc2cc(CNC(=O)CNC(=O)c3ccc(C)cc3)ccc2c1 | 8% | 7%
Cc1onc(-c2ccccc2Cl)c1C(=O)N1CCN(S(=O)(=O)c2ccc(F)c(F)c2)CC1 | 5% | 9%
COc1ccc(C)cc1NC(=O)Nc1cccc(-c2noc(C)n2)c1 | ? | ?
CCN(CC)S(=O)(=O)c1ccc2c(c1)nc(CN(C)C(=O)Nc1cccc(Cl)c1)n2C | -4% | 21%
CC(=O)c1c(C)oc2ccc(N(C(=O)Oc3ccccc3)S(=O)(=O)c3ccccc3)cc12 | 23% | 27%
COC(=O)c1ccccc1NC(=O)c1ccc2c(Cl)c3c(nc2c1)CCCC3 | -10% | -8%
COC(=O)c1c(NC(=O)c2ccc(OC)cc2OC)sc2c1CCCCC2 | -7% | -6%
Fc1cccc(/C=N/Nc2ccc(C(F)(F)F)cn2)c1 | 174%[activator] | 5%
O=C(NC1CC1)C1CCN(Cc2nc(-c3ccccc3)no2)CC1 | 12% | -2%
CN(C)C(=O)C1CN(C(=O)CCc2ncc(-c3ccc(F)cc3F)o2)c2ccccc2O1 (stereo not given) | 0% | 18%
CC(C)NC(=O)NC(=O)COC(=O)c1cc2c(s1)CCC2 | 1% | -7%
COc1cccc(CNC(=O)c2nn(-c3ccccc3Cl)nc2CO)c1 | -9% | -8%
CCCCOc1cc(/C=C/C(=O)c2ccc3c(c2)OCCO3)ccc1OC | 20% | -16%
c1ccc(-n2ncc3c(NC4CCCC4)ncnc32)cc1 | 80%&196%[activator] | -4%&-7%
CSc1ccc(N/C=C/C(=O)c2cc(C)ccc2C)cc1 | 169%[activator] | 20%

The last two records of the section above are carried over, then new ones follow:
Compound | 2A firefly | 2A Renilla
c1ccc(-n2ncc3c(NC4CCCC4)ncnc32)cc1 | 80%&196%[activator] | -4%&-7%
CSc1ccc(N/C=C/C(=O)c2cc(C)ccc2C)cc1 | 169%[activator] | 20%
Cc1cccc(NC(=O)C(C#N)C(=O)CC(C)C)c1 (stereo not given) | 20% | 13%
CCC(C)n1c(=N)c(C(=O)NC2CCCCC2)cc2c(=O)n3cc(C)ccc3nc21 (stereo not given) | -15% | -11%
N#CC1=C2SCN(C3CCCCC3)CN2C(=O)CC1c1c(F)cccc1Cl (stereo not given) | -13% | -3%
Cc1cc(O)c(CN2CCN(c3ccc(F)cc3)CC2)c2oc(=O)cc(C)c12 | ? | -7%
O=C(NCCCN1CCN(c2cccc(Cl)c2)CC1)Nc1ccccc1C(F)(F)F | ? | -5%
CC(=O)CC(C)=Nc1ccc(Br)cc1 | 55%[activator] | 32%
Cc1ccccc1CCNC(=O)Cc1nn(C)c(=O)c2ccccc12 | -13% | ?
Cc1ccc(NC2c3ccccc3-c3ccccc32)cc1 | 20% | 1%
COc1ccc(C)cc1NC(=O)C(=O)c1c[nH]c2ccccc12 | -1% | -27%
CC(=O)c1cccc(NC(=O)c2sc(-n3nc(C)c(CCC(C)C)c3C)nc2C)c1 | 11% | -20%
CC(C)(C)C(N)CN (stereo not given) | 18% | 10%
COCCCNC(=O)COc1ccc2c(-c3ccccc3)cc(=O)oc2c1 | -13% | -14%
COc1cccc(CN(C)C(=O)CSc2nc(-c3cccs3)nc3ccccc23)c1OC | 15% | 20%
CCC(CC)NC(=O)COc1ncnc2ccccc12 | -5% | -13%
O=C(Nc1cccc(-c2nc3ccccc3o2)c1)c1ccc(Cl)c([N+](=O)[O-])c1 | 23% | -13%
CN1CCN(c2ccc(C#N)cn2)CC1 | 0% | 15%
Cn1c(=O)c2c(nc(NCc3ccc4c(c3)OCO4)n2Cc2c(Cl)cccc2Cl)n(C)c1=O | -8% | -9%
O=C(Nc1ccc2oc(-c3cccnc3)nc2c1)c1cc([N+](=O)[O-])ccc1Cl | 0% | 13%
COc1cccc(Nc2nc(-c3ccc4c(c3)CC(C)N4S(C)(=O)=O)cs2)c1 (stereo not given) | ? | ?
c1nc(C23CC4CC(CC(C4)C2)C3)cs1 | 2% | -11%[1.06 µM]
CC(=O)CC(C)(C)S(=O)(=O)c1ccc(Cc2ccc(S(=O)(=O)C(C)(C)CC(C)=O)cc2)cc1 | 24% | 17%
Cc1ccc(F)cc1NC(=O)CCCSc1nc2ccccc2s1 | 10% | -2%[1.06 µM]
Cc1ccccc1-c1nc(C#N)c(NCc2ccccc2Cl)o1 | 22% | 97%[activator]
O=C(CCc1ncc(-c2ccc(F)cc2)o1)NCc1ccc2c(c1)OCO2 | 10% | 4%
CCOc1ccccc1NC(=O)C1CCN(S(=O)(=O)c2ccccc2)CC1 | -21% | 10%
CN(C)CCCn1c(-c2ccc(Cl)cc2)csc1=Nc1ccccc1 | 7% | -14%
COCCNC(=O)c1ccc2c(c1)N=C(C)c1cc(C)ccc1S2 | 0% | 76%[activator]
COC(=O)[C@]12C[C@H](CC(=O)NCc3ccccc3)C(=O)N(Cc3ccccc3)C1=C[C@H](COCc1ccccc1)O[C@@H]2C | -7% | 31%[activator]
CCOC(=O)c1ccc(N2CCN(c3cc(C)ccc3C)CC2)c(NC(=O)Nc2ccccc2)c1 | -14% | -8%
COc1ccc(OC)c(C(=O)Oc2cc(Cl)ccc2Cl)c1 | 26% | -6%[1.06 µM]
COc1ccc2c(C)c(CCC(=O)Nc3ccc(OC)c(OC)c3)c(=O)oc2c1 | 10% | 2%
CSc1ccccc1C(=O)NC(C)c1ccc(Br)cc1 (stereo not given) | 4% | -7%
CS(=O)(=O)N1CCN(C(=O)CNc2cc(Cl)ccc2F)CC1 | 17% | 4%
O=C(OCC1(COC(=O)c2ccccc2)CCC(COC(=O)c2ccccc2)(COC(=O)c2ccccc2)C1=O)c1ccccc1 | 0% | 10%
O=C(NCCc1ccccc1)c1nc(-c2cccc3[nH]ccc23)no1 | 0% | 46%[activator]
CCCC(=O)NCC1(N(C)C)CCCCC1 | 9% | -29%
COc1ccc(NC(=O)c2c(C)oc3ccc(O)c(CN4CCCC4)c23)cc1Cl | -22% | -12%
C=CC[N+]1(CC2C(C)C=C(C)CC2C)CCCCC1 (stereo not given) | 16% | 119%[activator]
CN(Cc1ccc(F)cc1)C(=O)NC1CCCC(C(F)(F)F)C1 (stereo not given) | 6% | 9%
O=C(Nc1ccc2oc(C3CC3)nc2c1)c1n[nH]c(=O)c2ccccc12 | 225%[activator] | 10%
CCOc1ccc(N(Cc2cc3cc(C)ccc3[nH]c2=O)S(C)(=O)=O)cc1 | 11% | -10%
COc1ccc(S(=O)(=O)NCC2CCC(C(=O)N[C@@H](C)C(=O)NCc3ccco3)CC2)cc1 (stereo not given in full) | 5% | 5%
CC(NC(=O)c1ccc2ccccc2n1)c1ccc(Cl)cc1 (stereo not given) | 200%[activator] | 6%
CC1CCCCN1CCCNC(=O)Cn1ncc2c([nH]c3ccccc32)c1=O (stereo not given) | 4% | 11%
CC(=O)Nc1ccc(-c2csc(Nc3ccccc3)n2)cc1 | 190%[activator] | -3%
CC(C)CCNC(=O)Cn1c(-c2cccs2)cc2cc(F)ccc21 | -7% | 28%
CCOC(=O)c1ccccc1NC(=O)Nc1nnc(N(C)C2CCCCC2)s1 | 9% | 9%
CN(C)c1ccc(C(CNC(=O)c2ccccc2Cl)N2CCCC2)cc1 (stereo not given) | -5% | -5%
COc1ccc(-c2nc(-c3ccc(C)cc3C)cs2)cc1OC | 64%[activator] | 17%
CCOC(=O)C(NC(=O)/C=C/c1ccc2cc(OC)ccc2c1)C(=O)OCC | 19% | 34%[activator]
CC(NCc1cccc(C#N)c1)c1ccc(Cl)c(Cl)c1 (stereo not given) | -6% | -3%
Cc1ccc(-c2cc(C(=O)N3CCOCC3)c3ccccc3n2)c(C)c1 | 33%[activator] | 2%
COc1ccc(-c2ccc(C#N)c(SCC(=O)NCCc3ccccc3)n2)cc1 | -2% | -5%
Cc1cc(C)n(-c2nc3ccccc3nc2Nc2ccccc2Cl)n1 | -8% | -11%
COc1cccc(NC(=O)NC2CCN(c3nc(C)cc(C)n3)CC2)c1 | 4% | -4%
Cc1ccc(O)c(C(=O)N(C)Cc2c(F)cccc2Cl)c1 | 10% | 79%[activator]
CCCOc1ccc(NC(=O)C(=O)c2c(C)[nH]c3ccccc23)cc1 | 32%[activator] | 0%
O=C(Nc1ccc2nc(SCc3cccc4ccccc34)sc2c1)c1ccc(Cl)cc1 | 23% | 14%
Cc1cc(C)c(C)c(S(=O)(=O)N2CCN(C(C)c3nc4ccccc4c(=O)[nH]3)CC2)c1C (stereo not given) | -3% | 107%[activator]
O=C(NC(c1ccccc1)c1ccccc1)c1cccs1 | 14% | 7%

The closing four entries of the part above are carried over, then new ones follow.
Compound | 2A firefly | 2A Renilla
CCCOc1ccc(NC(=O)C(=O)c2c(C)[nH]c3ccccc23)cc1 | 32%[activator] | 0%
O=C(Nc1ccc2nc(SCc3cccc4ccccc34)sc2c1)c1ccc(Cl)cc1 | 23% | 14%
Cc1cc(C)c(C)c(S(=O)(=O)N2CCN(C(C)c3nc4ccccc4c(=O)[nH]3)CC2)c1C (stereo not given) | -3% | 107%[activator]
O=C(NC(c1ccccc1)c1ccccc1)c1cccs1 | 14% | 7%
N#Cc1ncn(CCC(=O)Nc2ccc(Cl)cc2F)n1 | -8% | -11%
Cc1cc(C)nc(NS(=O)(=O)c2ccc(NC(=O)COc3ccc(C(C)(C)C)cc3)cc2)n1 | 14% | 61%[activator]
Cc1ccc(/C=C/C(=O)c2cc(Cl)ccc2O)cc1 | 108%[activator] | 23%
CCOc1ccc(CNC(=O)C2=Cc3cccc(OC)c3OC2)cc1 | 0% | 1%
Cc1oc(-c2ccccc2Cl)nc1CSc1nc2ccncc2[nH]1 | ? | ?
Cc1cccc(NC(=O)Cn2cnnc2C#N)c1C | -10% | -11%
Cc1cc(C)c2ccc3nc(C)c(C)c3c2[nH]1 | 0% | 1%
CC(C)N(C)CC#CC(O)(c1ccccc1)C1CCCC1 (stereo not given) | 8% | -15%
COc1cccc(CNC(=O)c2cnc3c(-c4ccc(F)cc4)c(C)nn3c2C)c1 | -14% | -9%
COC(=O)c1ccc(NC(=O)CC2C(=O)N(c3ccc(F)cc3)C(=O)N2Cc2ccc(OC)cc2)cc1 (stereo not given) | -3% | 31%[activator]
CC1=C(C(=O)Nc2ccccc2)C(c2ccc(C)cc2)N=C(Nc2nc3ccccc3o2)N1 (stereo not given) | 21% | 12%
CCCCN(C)CCNC(=O)c1cc(-c2cccnc2)nc2ccc(S(=O)(=O)N3CCC(C)CC3)cc12 | -18% | 6%
O=[N+]([O-])c1cccc(N/N=C/c2ccc(Br)cc2)c1 | 144%[activator] | -11%
CCOC(=O)C1CCN(c2ncnc3c2c(-c2ccccc2)cn3-c2cccc(C)c2)CC1 | -12% | 11%
C=CCNC(=O)c1cccc(C(=O)OC)c1 | 11% | 11%
